# From PubChem
# Cruzain inh Det – inhibitors of Trypanosoma cruzi cruzain with detergent. P25779. Potency, µM, for inactives: max response, negative = inhibition, hits mostly inhibitors. 200,000 compounds, 0.43% hits. purified cruzain, Z-FR-AMC fluorescence, 0.01% Triton;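 further: plate controls were neutral wells for no effect and buffer without enzyme for full effect; nearly all actives have a fitted effect of over 40% in size; top concentration of the series not given in the record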
# Target sequence (P25779 123-467 limits assumed): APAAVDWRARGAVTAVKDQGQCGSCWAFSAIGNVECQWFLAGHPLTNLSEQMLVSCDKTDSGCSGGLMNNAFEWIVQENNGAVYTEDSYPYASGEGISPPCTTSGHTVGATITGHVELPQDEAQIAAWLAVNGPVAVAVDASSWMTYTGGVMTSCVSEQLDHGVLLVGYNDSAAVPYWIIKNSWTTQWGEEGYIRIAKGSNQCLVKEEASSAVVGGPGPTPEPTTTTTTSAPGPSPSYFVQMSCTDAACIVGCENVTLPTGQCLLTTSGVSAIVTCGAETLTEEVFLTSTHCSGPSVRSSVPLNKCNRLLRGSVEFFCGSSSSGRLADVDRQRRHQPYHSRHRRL
#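 Read-out: AMC fluorescence (360 nm excitation, 450 nm emission), four reads over 2 min, first-to-third difference used. Conditions: cruzain 1.5 nM, Z-FR-AMC 2 uM, pH 5.5 acetate, 5 mM DTT, 0.01% Triton X-100.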
# Cruzain inh noDet – inhibitors of Trypanosoma cruzi cruzain without detergent. purified cruzain, Z-FR-AMC fluorescence, no detergent. Potency, µM, for the others: max response, negative = inhibition, usual class: inhibitors. 200,000 compounds, 2.3% hits;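 further: plate controls were enzyme without inhibitor for no effect and buffer without enzyme for full effect; nearly all actives have a fitted effect of over 40% in size; top concentration of the series not given in the record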
#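 Detergent-free condition (0.00005% Triton X-100) in acetate buffer pH 5.5 with DTT. 1.5 nM enzyme and compound were pre-mixed 15 min, then 2 uM Z-FR-AMC substrate added; reaction progress from fluorescence change between first and third reads (60 s).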
# SARS PLpro yeast – SARS-CoV PLP inhibition in yeast; S. cerevisiae expressing SARS-CoV PLpro, growth rescue; control for the full effect not named in the record; Potency, µM (titrated, usually from 32.9 µM), inactives show at the top dose activity, positive = growth rescue; 330,000 compounds, 0.19% hits; active means well fitted rising curve with a large enough effect; inconclusive means small, poorly fitted or top-dose-only effect; inactive means no such curve, though single readings can be large or run the other way; further: 0% is about no effect; nearly all actives have a fitted effect of over 55% in size; growth read by luminescence after 48 h
# StopGo reporter – FMDV 2A StopGo reporter, luciferase signal; 410,000 compounds, 1.2% hits; Potency, µM (series often up to 57.9 µM), for the others: at the top dose signal change, negative = less light; human cells with a luciferase reporter of 2A StopGo recoding; control for the full effect not named in the record; active = well fitted falling curve with a large enough effect; inconclusive = small, poorly fitted or top-dose-only effect; inactive = no such curve, though single readings can be large or run the other way; tested in HEK293T cells; further: on the % scale 0 is the no-effect control and ±100 the full control effect; nearly all actives have a fitted effect of over 45% in size; luciferase light after 4 h
# Lassa entry inh – blocks Lassa virus binding to or entry into cells; AID 540256; 300,000 compounds, 1.2% hits; Potency, µM (titrated, usually from 37.9 µM), for the others: top-dose activity change, negative = inhibition, most hits filed as inhibitors; Lassa virus pseudotype entry inhibition, cell reporter; control for the full effect not named in the record; active means well fitted inhibition curve with a large enough effect; inconclusive means small, poorly fitted or top-dose-only effect, or effect the other way; inactive means flat fitted curve, though single readings scatter; tested in HEK293 cells; further: on the % scale 0 is the no-effect control and ±100 the full control effect; nearly all actives have a fitted effect of over 50% in size; luciferase read-out
# NS1 function inh – blocks influenza NS1 protein function; S. cerevisiae slowed by influenza A NS1, growth recovery by OD600; Potency, µM (series often up to 46.1 µM), inactives show top-dose activity, positive = more growth; 270,000 compounds, 0.4% hits; active means well fitted rising curve with a large enough effect; inconclusive means small, poorly fitted or top-dose-only effect; inactive means no such curve, though single readings can be large or run the other way; further: nearly all actives have a fitted effect of over 50% in size
#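 S. cerevisiae expressing influenza A NS1, grown in glucose, washed, then diluted 1:100 into pH 6.0 -URA galactose medium with 23 nl compound. Growth recovery read as OD600; NS1-free strain serves as control.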
# Marburg entry inh – blocks Marburg virus binding to or entry into cells. Marburg virus pseudotyped entry inhibition, cell reporter; control for the full effect not named in the record; about a third of the inactives were read at about 46 µM. Potency, µM (top dose mostly 37.8 µM), for the others: top-dose activity change, negative = inhibition, hits mostly inhibitors. 300,000 compounds, 1.8% hits. AID 540276; active = well fitted inhibition curve with a large enough effect; inconclusive = small, poorly fitted or top-dose-only effect, or effect the other way; inactive = flat fitted curve, though single readings scatter; tested in HEK293 cells; about a fifth of its hits are not listed in these tables; further: on the % scale 0 is the no-effect control and ±100 the full control effect; luciferase read-out
# RE007 growth inh – less growth of the S. pombe RE007 Vpr strain. S. pombe RE007 Vpr strain, BacTiter-Glo ATP luminescence, 24 h; control for the full effect not named in the record. Potency, µM (series often up to 92.2 µM), for the others: at the highest dose activity change, negative = less growth. 360,000 compounds, 0.21% hits. AID 651644; active = well fitted falling curve with a large enough effect; inconclusive = small, poorly fitted or top-dose-only effect; inactive = no such curve, though single readings can be large or run the other way;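 further: on the % scale 0 is the no-effect control and ±100 the full control effect; nearly all actives have a fitted effect of over 50% in size; the assay follows cell death caused by Vpr and the record does not say whether a fall means rescue or toxicity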
#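 Fission yeast strain RE007, carrying one chromosomally integrated HIV-1 vpr copy, was seeded at OD 0.01 in PMG+AL medium with 23 nL pinned compound. After 24 h at 30 °C and 99% humidity, viability was read by BacTiter-Glo luminescence.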
# * = called active by the depositor; ? = inconclusive; . = not tested or not shown; & = joins results of further samples; [ ] = another dose, or the depositor's remark. Unless noted, the call rests on the fitted dose curve; in most records, active means well fitted curve in the direction sought with a large enough effect; inconclusive means small, poorly fitted or top-dose-only effect, or another doubt; inactive means no such curve, though single readings can be large; an effect the other way counts as inactive or inconclusive. Potency means the concentration at half of the fitted maximal effect.
Structure	Cruzain inh Det	Cruzain inh noDet	SARS PLpro yeast	StopGo reporter	Lassa entry inh	NS1 function inh	Marburg entry inh	RE007 growth inh
O=C(CSc1n[nH]c(-c2ccncc2)n1)NC1CCS(=O)(=O)C1 (stereo not drawn)	3.0%	0%	3%	-8%	6%	0%	6%	10%
COc1ccc(-c2cc(C(F)(F)F)nc(N3CCCCC3)n2)cc1OC	-13%	?	3%	-24%	?	0%	?	8%
COc1cccc(CN2CCN(S(=O)(=O)c3ccc(Br)cc3)CC2)c1	-1.5%	7%	4%	.	-1%	-35%	-5%	-6%
CCOC(=O)CSc1nnc(-c2ccc(NS(=O)(=O)c3ccc(C)cc3)cc2)o1	-4.5%	-13%	7%	-2%	23%	-6%	?	5%
COc1ccc(/C=N/Nc2cc(C)nc(N)n2)cc1	-12%	-8%	-11%	22%	1%	6%	2%	5%
CN1CCC23CCCC[C@H]2C1Cc1ccc(O)cc13 (stereo partly drawn)	4.3%	14%	.	.	.	-3%	?	.
NC(=O)c1oc2ccccc2c1NC(=O)C1CCCCC1	2.2%	-2%	0%	-16%	.	-16%	.	-9%
CCN(Cc1ccncc1)C(=O)c1ccc(C)c(S(=O)(=O)N2CCCCC2)c1	.	.	2%	-1%	6%	.	-21%	-6%
Cc1ccc(NC(=O)CSc2ncn[nH]2)cc1	.	.	-5%	8%	3%	.	?	3%
CC(=O)Nc1cccc(NC(=O)CSc2cn(CC(=O)N3CCCCCC3)c3ccccc23)c1	-6.0%	-13%	.	-22%	-29%[46.1 µM]	.	.	.
O=C(NCc1ccccc1)c1ccc(N2CCC3(CC2)CC(c2ccc(Cl)cc2)=NO3)c([N+](=O)[O-])c1	.	.	-8%	?	.	7%	.	13%
CCc1ccc(NC(=O)CSc2nccn2-c2cccc(C)c2C)cc1	-6.1%	8%	.	-12%	?	.	.	.
CCN1C(=O)C(CC(=O)Nc2cc(C)ccc2C)SC1=Nc1ccc(S(N)(=O)=O)cc1 (stereo not drawn)	-1.8%	11%	-2%	?	4%	2%	-14%	-9%
COc1oc(-c2ccccc2C)nc1C(F)(F)F	1.4%	-7%	-3%	17%	15%	7%	27%	8%
COC(=O)CNC(=O)c1c(-c2c(Cl)cccc2Cl)noc1C	1.2%	2%	-1%	-16%	11%	2%	25%	-8%
CN1CC(Br)C(=O)NC1=O (stereo not drawn)	.	.	.	-10%	2%	.	.	-5%
Cc1noc(C)c1COc1ncnc2ccccc12	.	.	-3%	-9%	2%[46.1 µM]	0%	?	3%
O=C(C1COc2ccccc2O1)N1CCN(c2ccccc2)CC1 (stereo not drawn)	-1.9%	10%	-3%	4%	-10%	-72%	-14%[46.1 µM]	-1%
COc1ccc(C(=O)Nc2cccc(-c3nc4ncccc4o3)c2C)cc1OC	2.3%	-6%	20%	-3%	8%	4%	16%	6%
Clc1cccc(/C=N\Nc2nccs2)c1	25µM*	16µM*	?	38%[activator]	-7%	?	-7%	-28%
CN(CC(=O)Nc1cccc(F)c1)C(=O)c1cc(-c2ccco2)nc2ccccc12	.	.	1%	-22%	10%	.	?	0%
COC(=O)CCSCc1cn2cc(Cl)ccc2n1	-1.8%	-2%	-1%	0%	6%	4%	15%	-12%
O=C1C2CCN(CC2)C1Cc1ccc(OCCOc2ccccc2)cc1 (stereo not drawn)	4.0%	4%	-6%	-10%	4%	-5%	1%	10%
CCn1c(=O)c(C(=O)CN2CCN(Cc3ccc4c(c3)OCO4)CC2)c(N)n(Cc2ccccc2)c1=O	.	.	0%	-12%	-15%[46.1 µM]	.	?	-12%
CN(CCO)c1c2c(nc3cc(-c4cccc(F)c4)nn13)CCCC2	-4.8%	5%	-26%	24%	0%	-2%	-23%	-22%
O=C(NCCC1=CCCCC1)c1ccc2c(c1)N(Cc1cccc(Cl)c1)C(=O)c1ccccc1S2(=O)=O	-1.0%	?	.	-11%	?	.	.	.
COCCCNc1nc(-c2ccncc2)nc2ccccc12	-1.3%	-8%	-5%	-24%	-20%	-34%	?	-1%
CC1SCC(=O)N(CC(=O)Nc2ccc3c(c2)OCCO3)C1=O (stereo not drawn)	.	.	2%	49%[activator]	0%	.	3%	12%
COc1cc(C(=O)O/N=C2\C=CC(=O)C=C2C)cc(OC)c1OC	-1.9%	5%	0%	?	-18%	10%	-19%	-15%
CCc1cccc(CC)c1NC(=O)c1cccc(N)c1	4.1%	-7%	0%	12%	?	6%	-14%[46.1 µM]	1%
CC(C)(C)c1ccc(NC(=O)NC2CCCc3ccccc32)cc1 (stereo not drawn)	.	.	0%	-20%	.	2%	.	-5%
O=C(CCn1c2c(c3ccccc31)CCCC2)NNC(=O)c1ccccc1[N+](=O)[O-]	-2.0%	5%	-12%	-11%	-10%	0%	?	-2%
N#Cc1ccc(-c2cccs2)nc1SCc1cccnc1	.	.	0%	-8%	-38%[46.1 µM]	3%	?	5%
O=C(c1cccc(C(F)(F)F)c1)N1CCC2(CC1)NCCc1[nH]cnc12	.	.	17%	0%	.	9%	.	-15%
CCOc1ccc(NC(=O)C2CCN(C(=O)NC3CCCCC3)CC2)cc1	0.7%	29%	10%	-7%	-13%	6%	?	23%
OC1CN=C2C=CC=CN2C1 (stereo not drawn)	0.5%	-5%	-3%	-10%	-3%	-1%	6%	-11%
COc1ccc2cc1Oc1ccc(cc1)C[C@H]1c3cc(c(OC)cc3CCN1C)Oc1c(OC)c(OC)cc3c1[C@H](C2)N(C)CC3	3.7%	11%	1%	-23%	.	1%	.	-3%
O=C(Nc1ccccc1)c1cccn(Cc2ccccc2)c1=O	.	.	-9%	3%	?	0%	?	-14%
COc1ccccc1CNC(=O)CC(c1ccc(C)cc1)N1Cc2ccccc2C1=O (stereo not drawn)	-2.9%	-7%	.	44%[activator]	-21%[46.1 µM]	.	.	.
O=C(CSc1ccc(-c2ccco2)nn1)N1CCCCC1	.	.	-4%	42%[activator]	31%	.	13%	-7%
CC1CCCN(c2ccc(C(=O)NCc3ccc4c(c3)OCO4)cc2[N+](=O)[O-])C1 (stereo not drawn)	-8.8%	-6%	-33%	?	-5%	-7%	2%	-1%
COc1ccc(C2CC(=O)c3cc(-c4nc(-c5cccc([N+](=O)[O-])c5)cs4)c(=O)n(-c4ccccc4N)c3C2)cc1 (stereo not drawn)	-2.6%	?	.	1%	?	.	6%[46.1 µM]	.
Cc1ccc(NS(=O)(=O)c2c(C(=O)N3CCC(C)CC3)c(C)n(C)c2C)cc1Cl	-4.9%	?	.	74%[activator]	-22%[46.1 µM]	.	.	.
CCCCCNC(=O)c1ccc2c(c1)ncn2-c1cccc(C)c1	0.8%	22%	.	6%	-12%[46.1 µM]	.	.	.
O=C(Nc1nnc(SCc2ccccc2)s1)c1cccc([N+](=O)[O-])c1	-7.3%	?	-18%	-2%	25%	-8%	4%	-2%
CCOc1ccccc1CNCCOC	.	.	0%	8%	0%	2%	?	-9%
CCCC[N+]1(C)C2CC(OC(=O)C(CO)c3ccccc3)CC1C1OC12 (stereo not drawn)	-3.7%	-2%	-1%	-15%	.	-18%&5%	-4%	-10%[18.4 µM]
CCOc1ccc(S(=O)(=O)Nc2ccc3c(c2)n(C)c(=O)n3C)cc1	.	.	0%	-16%	8%[46.1 µM]	4%	-9%[46.1 µM]	8%
CCOc1ccc(CNC(=O)c2ccc3c(c2)c(C)c(C)n3Cc2ccccc2)cc1OC	0.2%	-27%	.	-27%	-2%[46.1 µM]	.	.	.
CC1=C(C(=O)NC2CCCCC2C)C2(CCC(C)CC2)OC1=O (stereo not drawn)	-6.8%	9%	7%	0%	.	?	.	-8%

# Remaining list, next part.
Structure	Cruzain inh Det	Cruzain inh noDet	SARS PLpro yeast	StopGo reporter	Lassa entry inh	NS1 function inh	Marburg entry inh	RE007 growth inh
CCOc1ccc(N2CC(c3nc4ccccc4n3Cc3cccc(Cl)c3)CC2=O)cc1 (stereo not drawn)	-7.0%	8%	.	-29%	-11%[46.1 µM]	.	-6%[46.1 µM]	.
Fc1cccc(Cl)c1/C=N/Nc1c(Cl)cncc1Cl	-7.2%	-7%	5%	-6%	3%	6%	?	1%
CC(C)(C)c1o[nH]c(=O)c1CC(N)C(=O)O (stereo not drawn)	3.0%	1%	.	-13%	-5%	1%	12%&12%&12%&-13%	-3%[18.4 µM]
CN(Cc1cn[nH]c1-c1ccc(-c2ccccc2)cc1)CC1CCOCC1	.	.	-2%	10%	.	-1%	.	3%
O=C(O)CSCC(=O)N1CCN(S(=O)(=O)c2cc(Cl)cc(Cl)c2)CC1	.	.	-6%	-14%	17%[46.1 µM]	-1%	8%[46.1 µM]	10%
COc1ccc(OC)c(NC(=O)CCS(=O)(=O)c2cc3c(cc2C)NC(=O)CO3)c1	.	.	-3%	20%	.	-13%	.	-4%
CCc1cccc(NC(=O)C2CCN(S(=O)(=O)c3c(C)noc3C)CC2)c1	.	.	-2%	-25%	?	.	4%	8%
CC(=NNS(=O)(=O)c1cccc([N+](=O)[O-])c1)c1ccc(-n2ccnc2)cc1	.	.	-4%	34%[activator]	-4%	.	16%	0%
CCOC(=O)c1ccc(-c2ccc(/C=C(\C#N)C(=O)Nc3ccc(OCC)cc3)o2)cc1	-3.1%	-8%	.	-15%	4%[46.1 µM]	.	.	.
COc1ccc(Cn2c(=O)[nH]c3cc(C(=O)N4CCN(c5ccccc5OC)CC4)ccc3c2=O)cc1	.	.	-11%	18µM*	?	24%	?	-3%
Cc1ccc(Cl)cc1N(Cc1ccc(C(=O)NCc2cccnc2)cc1)S(=O)(=O)c1ccccc1	-4.4%	13%	5%	-14%	-11%	-4%	27%	1%
CC(CCCN1CCCC1)Nc1ccnc2cc(Cl)ccc12 (stereo not drawn)	.	.	.	13%	5%[46.1 µM]	.	3.5µM*	-11%
Cc1cccc(C(=O)Nc2cccc(Br)c2)c1[N+](=O)[O-]	.	.	0%	12%	.	-3%	.	0%
CCOC(=O)c1cc(-c2ccccc2)n(CC(=O)Nc2ccc(OCC)cc2)c1C	2.3%	-12%	15%	-15%	?	25%	-1%	5%
